Compound activity (PubChem BioAssay)
Ba CapD inh: Bacillus anthracis CapD inhibitors, primary screen, biochemical, fluorescence intensity; CapD gamma-glutamyltranspeptidase (Bacillus anthracis Ames Ancestor); purified CapD enzyme, fluorescence intensity read-out; active compounds read low; some hits fall short of the stated cut; z-score (concentration not given with the values); 140,000 compounds, 0.23% hits;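 active = z-score under -4 in either of two replicates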;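 also: stock transfer was 100 nL into about 40 µL; score is relative to mean and spread of the plate; one replicate is shown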
AID504770: growth inhibition of E. coli YBA685, primary screen, V. cholerae RctB inhibitors; 130,000 compounds, 0.27% hits; AID 504770, 2011; E. coli YBA685 rctB-dependent plasmid, OD600 growth, 3 h; active compounds read low; z-score (concentration not given with the values);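 active = z-score under -2 on both plates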;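 also: wells of about 30 µL received 100 nL stock; score is relative to mean and SD of the test wells; the first replicate is given; strong numbers were not always called active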
The depositor's hits bear a star; i = inactive; . = not tested or not shown. This is a subset. The share of hits here may be higher or lower than overall.

SMILES | Ba CapD inh | AID504770
O=C(O)c1cn(C2CC2)c2cc(N3CCN(C(=S)S)CC3)c(F)cc2c1=O | 47 | -8.3*
O=C(O)CC(NS(=O)(=O)c1cccc2nsnc12)c1ccc(Cl)cc1 (stereo not drawn) | 0.03 | .
O=C(CCCCl)N1CCc2[nH]c3ccccc3c2C1 | 0.15 | -0.35
C=CCN1C(=O)C2(C(C#N)=C(N)OC(C)=C2C(=O)OC)c2ccccc21 (stereo not drawn) | -0.185 | -0.7
O=C(O)c1ccc(-n2cncn2)cc1 | . | -0.4
CC(c1ccccc1)N1C(=O)NC(C(F)(F)F)(C(F)(F)F)C2=C1CC(C)(C)CC2=O (stereo not drawn) | 0.58 | -0.35
Cc1nc(C(F)(F)F)ccc1C(=O)N1CCC2(CC1)OCCO2 | 0.85 | -0.6
COc1ccc(C(=O)COC(=O)C2CCC(=O)N2)cc1 (stereo not drawn) | . | -0.3
NC(=O)c1ccccc1O | -0.445 | 0.75
Cc1ncc(CC(=O)n2cc(C(=O)c3cc(F)ccc3O)cn2)s1 | . | -0.95
CC(Sc1ccc(Br)cc1)C(N)=O (stereo not drawn) | . | -0.6
CCOc1ccc(C(CNC(=O)C(CC)c2ccccc2)N2CCOCC2)cc1OC (stereo not drawn) | . | -0.7
Cn1c(-c2cccn(Cc3cccc(C(F)(F)F)c3)c2=O)n[nH]c1=S | 8.84 | .
Cc1nc2ccccc2cc1OCc1ccccc1 | -0.315 | -0.1
Cc1ccc(OC2CCS(=O)(=O)C2)cc1 (stereo not drawn) | -0.555 | -1.05
O=C(COC(=O)/C=C/c1ccc(Br)o1)Nc1ccc2[nH]c(=O)[nH]c2c1 | . | -0.25
CC(C)N(Cc1nc(-c2ccccc2)no1)C(=O)C(C)(C)C | 7.5 | -0.5
Cc1ccc(C2N(c3ccccc3)C(=O)N3CCCN23)cc1 (stereo not drawn) | 0.07 | .
COc1ccc(-c2noc(COC(=O)/C=C/c3ccc(OC(F)F)cc3)n2)c(OC)c1 | . | -0.45
Cc1cc(C)cc(-c2nnc(SC(C)c3nc4ccccc4c(=O)[nH]3)o2)c1 (stereo not drawn) | . | 0

Full records, quoted from the list. Order of values: Ba CapD inh	AID504770
Profile of Cc1ccc(C2N(c3ccccc3)C(=O)N3CCCN23)cc1 (stereo not drawn) = 0.07	.
Profile of CCOc1ccc(C(CNC(=O)C(CC)c2ccccc2)N2CCOCC2)cc1OC (stereo not drawn) = .	-0.7
Profile of O=C(COC(=O)/C=C/c1ccc(Br)o1)Nc1ccc2[nH]c(=O)[nH]c2c1 = .	-0.25
Profile of Cc1ccc(OC2CCS(=O)(=O)C2)cc1 (stereo not drawn) = -0.555	-1.05

A few values from the entries so far:
CC(C)N(Cc1nc(-c2ccccc2)no1)C(=O)C(C)(C)C @ Ba CapD inh: 7.5
CC(Sc1ccc(Br)cc1)C(N)=O (stereo not drawn) @ AID504770: -0.6
Cc1ccc(C2N(c3ccccc3)C(=O)N3CCCN23)cc1 (stereo not drawn) @ Ba CapD inh: 0.07
CCOc1ccc(C(CNC(=O)C(CC)c2ccccc2)N2CCOCC2)cc1OC (stereo not drawn) @ AID504770: -0.7
O=C(COC(=O)/C=C/c1ccc(Br)o1)Nc1ccc2[nH]c(=O)[nH]c2c1 @ AID504770: -0.25
Cn1c(-c2cccn(Cc3cccc(C(F)(F)F)c3)c2=O)n[nH]c1=S @ Ba CapD inh: 8.84

The list goes on:
SMILES | Ba CapD inh | AID504770
O=C(c1cccnc1)n1nc(NCc2ccccc2)nc1NCc1ccccc1 | -1.06 | 1.8
CC1=C(C(=O)Nc2ccccc2F)C(c2ccsc2)C2=C(CC(C)(C)CC2=O)N1 (stereo not drawn) | -0.715 | 0.5
CC1=C(C(=O)Nc2ccccc2)C(CC(C)C)n2nc(SCc3cccc(C)c3)nc2N1 (stereo not drawn) | -0.035 | -1.35
CC(C)CCOc1cccc(OCC(=O)NCC(=O)O)c1 | i | -0.45
CC(C(=O)NC1CCCC1)N1CCN(c2ccccn2)CC1 (stereo not drawn) | . | -0.15
CCCOc1ccc2c3c(c(=O)oc2c1)CCCC3 | 40.7 | .
CC(=O)Oc1ccccc1C(C)=O | -0.125 | .
Cc1ccc(C(=O)[C@H]2[C@H](c3ccccc3F)C(C#N)(C#N)[C@@H]3c4ccccc4C=CN32)cc1 | 0.69 | .
Cc1ccc(NC(=O)C2=C(C(=O)O)CCCC2)cc1Br | . | 0.6
Cc1ccc(Oc2ncccc2NC(=O)c2ccc(Cl)cc2Cl)c2c1CCC2 | 0.185 | 0.7
Cc1noc(C)c1-c1nc(CSc2ccccn2)no1 | -0.08 | .
CCC(C)Sc1nnc(Cn2c(=O)sc3ccccc32)n1-c1ccc(OC)cc1 (stereo not drawn) | . | 0.3
O=C(OCc1cc(=O)n2ccccc2n1)c1ccc(Cl)c(S(=O)(=O)N2CCCC2)c1 | . | -0.5
C=CCn1c(SCC(=O)NCCc2ccccc2)nc2cc(C(=O)NCC3CCCO3)ccc2c1=O (stereo not drawn) | 1.14 | .
CCCc1cc(=O)[nH]c(SC(C)C(=O)NCc2ccccc2)n1 (stereo not drawn) | . | -0.65
C=CCOC(=O)OCn1c(=O)sc2ccccc21 | -0.41 | 1.05
Nn1c(-c2ccccc2)nc2ccccc2c1=O | 5.52 | 0.05
CCOc1ccc(N2C(=O)NC(=O)/C(=C\c3ccc(OCC(=O)OC)c(OC)c3)C2=O)cc1 | 0.33 | .
COc1cc(CN(C)Cn2cnc3ccccc32)ccc1OC(F)F | . | -0.05
C=CCn1cc(C(=O)N(C)CCCC)c(=O)c2cc(S(=O)(=O)N(CC)CC)ccc21 | -0.935 | 0.25
COc1ccc(CN2CCCCCC2)cc1 | 0.375 | -0.5
CCOC(=O)c1cc(C)nn1Cc1ccc(Cl)cc1 | 0.36 | -0.3
c1ccc(CC2CCCCN2)cc1 (stereo not drawn) | . | 0.2
Cc1ccccc1-c1nsc(SCC(=O)N2CCCCC2)n1 | . | 0.2
O=c1oc2ccccc2cc1-c1csc(NN=C2CCCC2)n1 | 1.66 | 0.35
CC(=O)c1cc([N+](=O)[O-])c(SCCO)s1 | -2.42 | .
COC(=O)C(C)Oc1ccc2c(c1)oc(=O)c1ccccc12 (stereo not drawn) | 36.6 | 1.3
CN1C(=O)C(=C(C#N)C#N)c2cc(Br)ccc21 | . | 0.5
COc1cc(NC(=O)CC(CC(=O)O)c2ccc(C(F)(F)F)cc2)cc(OC)c1 (stereo not drawn) | 0.04 | .
CS(=O)(=O)CC(=O)c1ccc(Cl)c(Cl)c1 | 0.28 | -0.4

Compounds above that have a thiophene ring, fused or not, in the order listed:
SMILES | Ba CapD inh | AID504770
CC1=C(C(=O)Nc2ccccc2F)C(c2ccsc2)C2=C(CC(C)(C)CC2=O)N1 (stereo not drawn) | -0.715 | 0.5
CC(=O)c1cc([N+](=O)[O-])c(SCCO)s1 | -2.42 | .

Further results follow.
SMILES | Ba CapD inh | AID504770
COc1cc(C)c(S(=O)(=O)N2CCN(c3cccc(Cl)c3)CC2)cc1C | 0.21 | 0.2
CN1C(=O)/C(=c2\sc3n(c2=O)NC2(c4ccccc4)N(C)C(=O)N(C)C2(c2ccccc2)N=3)c2ccccc21 (stereo not drawn) | 0.28 | .
O=C(CSC1=NCCc2ccccc21)c1ccc(-c2ccccc2)cc1 | -0.655 | -0.4
N#C/C(=C\c1ccco1)S(=O)(=O)c1ccc(Cl)cc1 | . | -0.7
CC(=O)NNC(=O)c1cc2sccc2nc1C(F)(F)F | 0.14 | .
O=C(O)CCC(=O)N1CCC(O)(c2ccc3c(c2)OCO3)CC1 | . | -0.15
O=C1CS(=O)(=O)C(c2ccccn2)N1c1ccc(C(F)(F)F)cc1 (stereo not drawn) | -0.24 | -0.45
Cc1cc(C)c2c(c1)-c1c(ssc1=S)C(C)(C)N2C(=O)Cc1ccccc1 | -0.115 | .
CCn1c(CNS(=O)(=O)c2ccc(Br)cc2)n[nH]c1=S | -0.11 | .
Cc1noc(C)c1C(=O)NNc1ccccc1C(F)(F)F | 0.65 | -0.5

Next section.
SMILES	Ba CapD inh	AID504770
CN1CCC(N(C)C(=O)c2cccc(S(=O)(=O)N3CCN(c4ccccc4)CC3)c2)CC1	.	-0.4
COc1ccc(NS(=O)(=O)Cc2ccccc2Cl)cn1	-0.47	0.05
C=CCn1c(=O)/c(=C/c2ccc(C)o2)s/c1=C(/C#N)C(=O)c1ccccc1	.	0.1
CC1=C(C(=O)Nc2ccccn2)C(c2cccc(Cl)c2Cl)C2=C(CCCC2=O)N1 (stereo not drawn)	4.03	0.65
COc1ccc(C(=O)ON2C(=O)CCC2=O)cc1	-1.09	-0.65
CCOC(=O)c1c[nH]c2nc(C)ccc2c1=O	-0.085	0.55
c1cncc(-c2csc(-c3cccnc3)n2)c1	2.5	-0.4
Oc1ccc(O)c(Cc2nc3ccccc3s2)c1	0	-0.75
Cc1ccccc1-n1cnnc1SCC(=O)Nc1ccc(S(=O)(=O)N2CCCC2)cc1	.	-0.65
COc1ccc(CN2CCN(C)CC2)cc1Br	-0.3	0
Cc1cc(C(=O)OCC(=O)c2ccc(Br)s2)no1	.	-0.4
O=C(C1CCN(S(=O)(=O)c2cccs2)CC1)N(c1ccccn1)C1CCCCC1	.	0.5
c1cn(-c2ccc(-c3nn[nH]n3)cc2)cn1	-0.51	1.3
O=C(O)c1ccc2nc(-c3ccccc3)c(-c3ccccc3)nc2c1	2.33	.
CCN1CCSc2ccc(C(=O)NC(C)C)cc21	101	0.4
Cc1cc(F)ccc1NC(=O)CCc1nnc2ccc(N3CCC4(CC3)OCCO4)nn12	-1.43	0.45
Cc1ccc(S(=O)(=O)N2CCCCC2C(=O)N2CCCC3CCCCC32)cc1 (stereo not drawn)	0.4	-0.05
O=C(O)C1CC1C(=O)N1CCN(C(=O)Cc2ccc(Br)cc2)CC1 (stereo not drawn)	0.17	.
CCOC(=O)c1nccn1CC(=O)N(C)c1ccccc1	-0.62	1.4
COc1ccccc1NC(=O)C1c2cc(OC)c(OC)cc2C(=O)N(C)C1c1cccnc1 (stereo not drawn)	-0.155	-0.35
C[C@@H]([C@H](O)c1ccccc1)N(C)C	0.145	.
O=C(O)CCn1cnc2ccccc2c1=O	.	-0.2
CC1(C(=O)NC2CCCC2)CCC(=O)N1Cc1ccccc1 (stereo not drawn)	0.02	2.6
Cc1noc(C)c1-c1nc(CSCc2ccc(Cl)cc2)no1	0.73	-0.05
Cc1ccc2[nH]c(=O)c3cc(C(=O)O)sc3c2c1	43.5	-1.1
O=C(NCc1ccccc1)/C(=N\O)c1ccccc1	0.09	-0.05
Cc1ccccc1C(=O)NC#N	-0.02	-0.75
CCC(=O)Oc1ccc(Br)cc1/C=C1\Sc2ccccc2C1=O	2.48	-0.15
CCCCCn1c(=O)[nH]c2cc(C(=O)Nc3cc(OC)c(OC)c(OC)c3)ccc2c1=O	0.61	0.15
CC(C)(C)N1C(=O)c2ccc(C(=O)Nc3nccs3)cc2C1=O	-1.36	-0.3
COCC(=O)Nc1cc(C)c2c(=O)oc3ccccc3c2n1	1.48	0.4
CC12CN3CC(C)(CN(C1)C3(C)c1ccccc1)C2=O (stereo not drawn)	-0.355	.
O=C(Cc1ccccc1)N/N=C/c1ccccc1F	-0.175	1.7
Cc1ccsc1C(=O)OC(C(=O)c1c[nH]c2ccccc12)c1ccccc1 (stereo not drawn)	-0.205	-0.5
O=C(O)c1ccccc1N(Cc1ccccc1)C(=O)c1ccccc1O	.	-0.25
S=c1nc2[nH]c3cc4c(cc3c2n[nH]1)OCCO4	.	1.3
O=C1c2cccnc2C(=O)N1Cc1ccc(S(=O)(=O)NC2CCCC2)cc1	-0.25	-0.25
Cc1cc(Cl)ccc1NC(=O)/C=N/O	0.89	.
COCCSc1nnc(NC(=O)C2CC(=O)N(C(C)(C)C)C2)s1 (stereo not drawn)	.	-0.35
CN(C)c1ccc(NC(=O)Nc2ccccc2)cc1	1.11	0.1
O=C1NC(Nc2ccccn2)(C(F)(F)F)C(=O)N1c1ccc(F)cc1 (stereo not drawn)	-0.725	-0.6
Cc1ccccc1-c1noc(-c2ccc(OC(=O)c3ccccc3)cc2)n1	0.235	-0.1
O=C(/C=C/c1cccs1)Nc1nnc(-c2ccccc2)o1	-0.38	1
CC(=O)Nc1ccc(NC(=O)CNC(=O)COc2ccccc2)cc1	.	-0.25
CCOC(=O)C1=C(C)NC(SCC(=O)c2ccccc2)=C(C#N)C1CC(C)C (stereo not drawn)	-0.805	.
CC(=O)c1c(C)oc2ccc(N(C(=O)c3ccc(C)cc3)S(=O)(=O)c3ccc4ccccc4c3)cc12	0.145	.
O=C1C(=O)N(CCCN2CCOCC2)C(c2ccccc2F)/C1=C(\O)c1ccc(F)cc1 (stereo not drawn)	-0.125	.
CCOC(=O)c1cc(NC(=O)/C=C2/N(C)c3ccccc3C2(C)C)c(C)nc1C	.	0.05
CNC(=O)N(C1=NCC(C)(C)S1)c1ccc(F)c(Cl)c1	0.365	-0.9
CC(=O)N1CCc2cccc(NC(=O)C(c3ccccc3)c3ccccc3)c21	-0.525	.

Remaining list, next part.
SMILES	Ba CapD inh	AID504770
COC(=O)c1cccc(CS(C)(=O)=O)c1	-0.705	-0.85
O=C(N/N=C/c1cccc(Oc2ccc(Cl)cc2)c1)c1cc2ccccc2s1	1.31	.
Nc1nc(OC(C(F)(F)F)C(F)(F)F)nc(OC(C(F)(F)F)C(F)(F)F)n1	.	-0.35
C=CCN1C(=O)C(Cc2ccc(OC)cc2)S/C1=N/N=C/c1ccco1 (stereo not drawn)	-0.28	-0.85
COc1cccc(N2C(=O)CN=C2Nc2nc(C)cc(C)n2)c1	-0.595	1.25
c1ccc2oc(-c3cn[nH]c3-c3ccncc3)nc2c1	8.05	.
CC(=O)Nc1ccccc1OC(=O)N1CCOCC1	.	-0.95
Cc1cc(=O)n2nc(N3CCC(C(=O)NC(C)C)CC3)sc2n1	-0.87	-0.35
Cc1cc(OCC[N+]2(C)CCCCC2)nc2ccccc12	2.88	-0.75
CCN1CCc2nc3ccccc3c(C(=O)Nc3ccc(F)cc3)c2C1	.	0.05
O=C(c1cc(-c2ccc(F)cc2)on1)N1CCCc2ccccc21	0.7	-0.1
